GIV Gai3 FP: GIV-Galpha-i interaction inhibition. Galpha-i3/FITC-GIV peptide fluorescence polarization, 90 min; active compounds read low; scaled: aluminum fluoride 0%, vehicle 100%. percent of control (FP), % (concentration not given with the values). actives 0.42% (n = 210,000). AID 1224905;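 active means replicate mean at 85% of control or lower, very high polarization wells dropped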;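 further: wells of about 15 µL received 100 nL stock; the first replicate is given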
Target sequence (P08753 whole entry, looked up): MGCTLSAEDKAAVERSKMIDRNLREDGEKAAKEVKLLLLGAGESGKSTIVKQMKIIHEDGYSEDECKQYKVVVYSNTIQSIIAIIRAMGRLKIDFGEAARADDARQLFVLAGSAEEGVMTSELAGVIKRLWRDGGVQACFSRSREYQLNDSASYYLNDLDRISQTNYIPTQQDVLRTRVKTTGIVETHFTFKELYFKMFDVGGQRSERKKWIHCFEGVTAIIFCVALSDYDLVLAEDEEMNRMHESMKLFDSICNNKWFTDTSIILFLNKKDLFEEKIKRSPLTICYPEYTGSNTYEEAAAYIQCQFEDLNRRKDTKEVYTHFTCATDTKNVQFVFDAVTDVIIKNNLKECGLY
Sa growth inh: S. aureus growth inhibition. actives 0.53% (n = 170,000). relative growth, % (test concentration not listed). AID 720641. S. aureus RN4220 growth, OD600, 20 h, 42 °C; active compounds read low;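 active means growth at 42 °C up to 50% and 20 or more points under that at 30 °C, or under 10% at both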;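 further: 300 nL library stock went into each well; scaled to the means of positive and negative controls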
HCMV UL50-53 inh: disrupts HCMV UL50-UL53 complex binding | HTRF UL50-UL53 interaction, normalized percent inhibition | inhibition, % (test concentration not listed) | actives 0.15% (n = 190,000) | AID 1918969;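 active means both replicates at 50% or more, plus weaker picks with an unusually low signal ratio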;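 further: stock transfer was 100 nL into about 20 µL; 0% = negative control wells and 100% = wells with untagged competitor protein; inactives centre near -12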
Sa growth inh second temp: recorded beside Sa growth inh, whose call it bears; relative growth, %; measured here: growth at 30 °C;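 optical density after 20 h as mean of two plates; 100% = untreated growth and lower means inhibition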
The depositor's hits bear a star; nt = no result given; & = joins results of further samples.

Results follow in this order: GIV Gai3 FP, Sa growth inh, Sa growth inh second temp, HCMV UL50-53 inh
[1] COc1ccccc1CNC(=O)c1c(O)nc2cc(C)ccn2c1=O
  99, 94, 83, -8
[2] C=CCNC(=O)CN1CCN(S(=O)(=O)c2cc(C)ccc2C)CC1
  nt, 87, 91, -20
[3] Cc1onc(-c2c(F)cccc2Cl)c1C(=O)N(C)C1CCCCC1
  105, 101, 78, -16
[4] Cc1ccc(C)c(NC(=O)N(C)CCc2c(C)nn(C)c2C)c1
  104, 77, 89, nt
[5] COc1ccc(-c2nn3c(CSc4ccccc4)nnc3s2)cc1OC
  108, nt, nt, -19
[6] COc1cc2[nH]c(=O)n(CCCC(=O)N(C)Cc3ccccc3)c(=O)c2cc1OC
  104, 92, 85, -2
[7] COc1ccc(-n2cc(C(=O)Nc3cccc(SC)c3)nn2)cc1
  100, 83, 81, -28
[8] CCC1=Nc2cc(C(=O)O)ccc2Sc2ccccc21
  100, 73, 75, -9
[9] CC(=O)n1nccc1-c1sc2ccc(Cl)cc2c1C
  106, 70, 88, 4
[10] COc1ccc(-c2noc(-c3ccc(NCC4CCCO4)c([N+](=O)[O-])c3)n2)cc1 (stereo unspecified)
  100, 103, 87, -18

Going on with the list.
Results follow in this order: GIV Gai3 FP, Sa growth inh, Sa growth inh second temp, HCMV UL50-53 inh
[11] CC(=O)N/C(=C\c1ccc(F)cc1)C(=O)N(C)C
  nt, 86, 85, -11
[12] Cc1cc(NC(=O)COc2ccccc2)no1
  101, 93, 91, nt
[13] CSc1nc(/N=C/N(C)C)n(-c2ccccc2)n1
  109, 97, 97, -21
[14] O=C1Nc2cc(Cl)ccc2Oc2cc(Oc3ccccc3)ccc21
  102, 91, 87, nt
[15] O=C(NC1CCN(C(=O)c2ccc(Cl)cc2Cl)CC1)c1ccccc1
  102, 107, 88, -5
[16] O=C(c1ccccc1)c1cn(Cc2ccc(F)cc2)c2ccccc2c1=O
  94, 89, 84, -42
[17] CC1=CCC(c2cnc(-c3ccccc3)c(C)c2)N(C)C1c1ccccc1 (stereo unspecified)
  106, 96, 93, nt
[18] O=C(c1ccco1)N1CCN(C(=O)C2c3ccccc3C(=O)N3CCc4ccccc4C23)CC1 (stereo unspecified)
  95, 95, 85, -6
[19] N#Cc1nc(-c2ccccc2)oc1NCc1ccccc1
  nt, 110, 99, 5
[20] CCOC(=O)N1CCN(C(=O)c2ccc3c(c2)NC(=O)/C(=C/c2ccccc2)S3)CC1
  101, 92, 90, -23

Rewritten with tabs: part of the list above.
cpd	SMILES	GIV Gai3 FP	Sa growth inh	Sa growth inh second temp	HCMV UL50-53 inh
7	COc1ccc(-n2cc(C(=O)Nc3cccc(SC)c3)nn2)cc1	100	83	81	-28
8	CCC1=Nc2cc(C(=O)O)ccc2Sc2ccccc21	100	73	75	-9
9	CC(=O)n1nccc1-c1sc2ccc(Cl)cc2c1C	106	70	88	4
10	COc1ccc(-c2noc(-c3ccc(NCC4CCCO4)c([N+](=O)[O-])c3)n2)cc1 (stereo unspecified)	100	103	87	-18
11	CC(=O)N/C(=C\c1ccc(F)cc1)C(=O)N(C)C	nt	86	85	-11
12	Cc1cc(NC(=O)COc2ccccc2)no1	101	93	91	nt
13	CSc1nc(/N=C/N(C)C)n(-c2ccccc2)n1	109	97	97	-21
14	O=C1Nc2cc(Cl)ccc2Oc2cc(Oc3ccccc3)ccc21	102	91	87	nt
15	O=C(NC1CCN(C(=O)c2ccc(Cl)cc2Cl)CC1)c1ccccc1	102	107	88	-5
16	O=C(c1ccccc1)c1cn(Cc2ccc(F)cc2)c2ccccc2c1=O	94	89	84	-42
17	CC1=CCC(c2cnc(-c3ccccc3)c(C)c2)N(C)C1c1ccccc1 (stereo unspecified)	106	96	93	nt
18	O=C(c1ccco1)N1CCN(C(=O)C2c3ccccc3C(=O)N3CCc4ccccc4C23)CC1 (stereo unspecified)	95	95	85	-6
19	N#Cc1nc(-c2ccccc2)oc1NCc1ccccc1	nt	110	99	5

The list goes on:
Results follow in this order: GIV Gai3 FP, Sa growth inh, Sa growth inh second temp, HCMV UL50-53 inh
[21] CCn1c(=S)[nH]c2cc3ccccc3cc2c1=O
  nt, 97, 93, -20
[22] COc1ccc(NC(=O)c2c(NCc3ccc(C)o3)sc3c2CCCCC3)c(OC)c1
  117, 81, 95, nt
[23] N#CC1=C(SCC(=O)N2CCc3ccccc32)NC2=C(C(=O)CCC2)C1c1cccnc1 (stereo unspecified)
  nt, 55, 83, -45
[24] CC(=O)Nc1ccc(Cl)cc1C(=O)OCC(=O)c1ccc(Br)cc1
  104, 119, 67, -4
[25] O=C(O)c1cc(N2C(=O)C3C4C=CC(CC4)C3C2=O)ccc1Cl (stereo unspecified)
  101, nt, nt, -6
[26] O=C(CCCN1Cc2ccccc2C1)c1ccc(F)cc1
  nt, 120, 91, 1
[27] COc1ccc(-c2cc3c(S(=O)(=O)c4ccccc4)cc(NC(=O)c4ccco4)cc3n2C)cc1
  102, 81, 91, nt
[28] CN(C(=O)COc1ccc(Oc2ccccc2)cc1)C1CCS(=O)(=O)C1 (stereo unspecified)
  100, 92, 90, -7
[29] Cc1cc(C)cc(NC(=O)C2CCN(S(=O)(=O)c3ccc4c(c3)oc(=O)n4C)CC2)c1
  100, 111, 96, -32
[30] CCCc1cc(=O)n(-c2nc3ccccc3s2)[nH]1
  107, 72, 43, -18

New compounds follow.
Results follow in this order: GIV Gai3 FP, Sa growth inh, Sa growth inh second temp, HCMV UL50-53 inh
[31] O=C(CCc1nc2sc3c(c2c(=O)[nH]1)CCCC3)Nc1ccc(F)cc1
  102, nt, nt, 0
[32] CSc1nsc(SC)c1C(=O)Oc1ccccc1N1CCOCC1
  111, 116, 87, 1
[33] Cc1nn(-c2ccccc2)c(N2CCCC2)c1/C=N/N=c1\sc2ccccc2n1C
  nt, 80, 92, -9
[34] CCCNC(=O)c1ccc(Cl)c(-n2c(C)nc3cccnc32)c1
  111, nt, nt, 10
[35] CCC12CN3CC(CC)(CN(C1)C3c1cccc(N)c1)C2=O (stereo unspecified)
  105, 95, 86, -28
[36] Nc1ccc2oc3c(c2c1)CCCC3
  106, 75, 91, 8
[37] CCc1ccc(NC(=O)Nc2nnc(N3CCCCC3)s2)cc1
  107, 98, 90, 13
[38] Cc1ccc(S(=O)(=O)N(CC(=O)Nc2ccc3c(c2)OCO3)c2ccc(C)c(Cl)c2)cc1
  102, 94, 91, -2
[39] O=C1CN(C(=O)CCC(=O)c2ccc(Br)cc2)CCN1
  nt, 95, 92, -6
[40] C=CCn1c(=O)c(C(=O)Nc2ccc(C)cc2)c(O)c2ccccc21
  110, nt, nt, -7

41) CSc1nnc(SCC(=O)c2ccc3c(c2)OCCO3)s1
42) O=C(Nc1ccccc1F)c1cncc(NS(=O)(=O)c2ccc(F)cc2)c1
43) O=C1COc2ccc(C(=O)NCc3ccc4c(c3)OCO4)cc2N1
44) O=C(NCc1cccs1)c1ccc(CSc2nc3ccncc3n2Cc2cccc(F)c2)cc1
45) CCOC(=O)C1=C(CN(C)c2ccccc2)NC(=O)NC1c1ccc(C)cc1 (stereo unspecified)
46) O=C(OCC(=O)N(C1CCCCC1)C1CCCCC1)c1ccco1
47) Cc1ccc(CNC(=O)CCS(=O)(=O)c2ccc3c(c2)NC(=O)CO3)cc1
48) CCSc1nnc(Cc2ccccc2)o1

Compound	41	42	43	44	45	46	47	48
GIV Gai3 FP	97	98	104&99	103	105	nt	98	104
Sa growth inh	107	nt	116	110	65	110	84	100
Sa growth inh second temp	97	nt	90	91	46	101	84	100
HCMV UL50-53 inh	5	-18	4&-1	-16	nt	8	-27	-8

49) CN1C(=O)Cc2cc(S(=O)(=O)N3CCN(c4ccc(=O)n(-c5ccc(F)cc5)n4)CC3)ccc21
50) O=C(Cn1cnc2ccccc2c1=O)N1CCCCCC1
51) O=C(N/N=C\c1cccnc1)c1n[nH]c2c1CCCC2
52) CC12C(=O)N(c3ccc(I)cc3)C(=O)C1C1C=CC2C1 (stereo unspecified)
53) O=C(c1ccc(Cl)s1)N1CCc2ccccc2C1
54) Cc1cc(C)n(CC(=O)NCc2ccccc2)c(=O)n1
55) Cc1ccccc1Nc1nc(N)nc(COC(=O)CCCN=C2NS(=O)(=O)c3ccccc32)n1
56) COC(=O)Cc1c(C)c2cc3c(c(C)c2oc1=O)OCN(CCc1ccccc1F)C3

Compound	49	50	51	52	53	54	55	56
GIV Gai3 FP	109	103	104	100	101	102	nt	104
Sa growth inh	nt	65	101	102	85	96	86	86
Sa growth inh second temp	nt	82	95	99	97	95	87	85
HCMV UL50-53 inh	-13	0	-7	-4	29	-1	-15	-24

Arranged by value in Sa growth inh second temp (highest first): three from the list above.
entry | canonical_smiles | Sa growth inh second temp
52 | CC12C(=O)N(c3ccc(I)cc3)C(=O)C1C1C=CC2C1 (stereo unspecified) | 99
55 | Cc1ccccc1Nc1nc(N)nc(COC(=O)CCCN=C2NS(=O)(=O)c3ccccc32)n1 | 87
50 | O=C(Cn1cnc2ccccc2c1=O)N1CCCCCC1 | 82

More entries:
57) O=C1C2CC=CCC2C(=O)N1CCOc1cccc(Br)c1 (stereo unspecified)
58) Cc1sc2ncn(CC(=O)N3CCN(c4ccccc4)CC3)c(=O)c2c1S(=O)(=O)N1CCN(c2ncccn2)CC1
59) Cc1cc(C)n(-c2nc(C)c(C)c(=O)n2CC(=O)Nc2ccc([N+](=O)[O-])cc2)n1
60) COc1ccc2c(c1)C=C(C(=O)NCCc1c[nH]c3ccc(OC)cc13)CO2
61) O=C(Nc1ccccc1)c1nc2ccccc2n2cnnc12
62) CCOc1ccc(NC(=O)c2sc3nc4n(c(=O)c3c2C)CCCC4)cc1
63) O=C(O)Cn1c(=O)c(F)cn(C2CCCO2)c1=O (stereo unspecified)
64) CCC1(O)CC(C(=O)OC)=NN1C(=O)c1ccccc1 (stereo unspecified)

Compound	57	58	59	60	61	62	63	64
GIV Gai3 FP	nt	116	95	103	101	101	nt	101
Sa growth inh	125	99	100	nt	nt	96	74	73
Sa growth inh second temp	99	96	80	nt	nt	107	93	93
HCMV UL50-53 inh	9	6	nt	-71	-93	-11	-26	nt

65) COc1ccc(OC)c(S(=O)(=O)NCCc2sc(-c3ccc(F)cc3)nc2C)c1
66) N#Cc1ccccc1CNCc1cccs1
67) Cc1nc2c(-c3ccccc3)c(C)nn2c(C)c1CCC(=O)NC(C)c1ccccc1 (stereo unspecified)
68) COc1cccc(N2CCN(C(=O)c3cnc4c(-c5ccccc5)c(C)nn4c3C)CC2)c1
69) CC(=O)Nc1sc2c(c1C(=O)O)CCCC2
70) CC(NC(=O)CCCN1CCSc2ccccc21)c1ccccc1 (stereo unspecified)
71) Cc1oc(C(=O)O)cc1CSc1nc2ccccc2[nH]1
72) CC(C)Cn1c(=O)c2ccccc2c2ccccc2c1=O

Compound	65	66	67	68	69	70	71	72
GIV Gai3 FP	102	101	101	122	nt	106	102	100
Sa growth inh	nt	99	112	86	110	nt	100	98
Sa growth inh second temp	nt	77	92	59	88	nt	100	84
HCMV UL50-53 inh	-13	-11	-34	nt	-12	-31	13	6

73) Cc1ccc(N2C(=O)CN(Cc3ccccc3Cl)[C@H]3CS(=O)(=O)C[C@H]32)cc1C
74) COc1cc(/C=C2/N=C(C)OC2=O)cc(OC)c1OC
75) NS(=O)(=O)c1ccc(NC(=O)c2ccc3c(c2)CC(c2ccccc2)OC3=O)cc1 (stereo unspecified)
76) Cc1cc(C(=O)OCC(=O)c2ccc3[nH]c(=O)[nH]c3c2)c2ccccc2n1
77) CC1(C)OC(=O)C(=CNc2ccccc2)C(=O)O1
78) Cc1ccc(C(=O)c2ccccc2C(=O)O)c(C)c1
79) CCn1c(N)c(C(=O)NC)sc1=S
80) COc1ccc2c(c1)CCC1C2CC[C@@]2(C)C1CC[C@@H]2NCCCCCCN1C(=O)C=CC1=O (stereo partly specified)

Compound	73	74	75	76	77	78	79	80
GIV Gai3 FP	107	110	107	nt	102	99	104	101
Sa growth inh	nt	97	nt	95	111	100	98	nt
Sa growth inh second temp	nt	95	nt	68	90	99	87	nt
HCMV UL50-53 inh	-19	-35	-49	-77	nt	-7	-80	-26

81) O=C(NCCc1ccccc1Cl)c1cnn(-c2ccccc2)c1
82) O=C(N/N=C/c1cn(-c2ccccc2)nc1-c1cccs1)c1cccs1
83) CCc1ccc(CNC(=O)C2Cc3cc(S(=O)(=O)N4CCCCCC4)ccc3N2C(C)=O)cc1 (stereo unspecified)
84) CCn1c(=O)c(C(=O)Nc2ccc(I)cc2)c(O)c2ccccc21
85) COc1ccc(Nc2oc(-c3ccc(COc4ccccc4C)o3)nc2C#N)cc1
86) CCC(=O)N1c2ccc(S(=O)(=O)CCC(=O)N3CCN(c4ccc(F)cc4)CC3)cc2CC1C (stereo unspecified)
87) CCOc1ccccc1NC(=O)CS
88) NC(=O)CC12CC3CC(C1)CC(C(N)=O)(C3)C2
89) c1ccc(Cc2ccc[n+](Cc3ccccn3)c2)cc1
90) Cc1ccc(-c2csc3c(=O)n(C)c(SCC(=O)N4CCCC4)nc23)cc1
91) CCOc1ccccc1C(=O)NCc1ccc2c(c1)OCO2

Compound	81	82	83	84	85	86	87	88	89	90	91
GIV Gai3 FP	100	104	107	102	101	106	106	nt	nt	103	nt
Sa growth inh	nt	98	86	nt	100	104	72	116	89	nt	85
Sa growth inh second temp	nt	94	90	nt	86	89	4	88	98	nt	69
HCMV UL50-53 inh	-2	-8	nt	-15	-1	-24	-2	-10	0	18	-14

This is a random part of the collection; overall some 0.79% were active at least once.
